PD-1 reverse act – reversal of PD-1 mediated T-cell inhibition; primary human CD4 T cells, PD-L1 beads, CellTiter-Glo 96 h; 29,000 tested, under 10 active; activation, % (concentration not given with the values); AID 2316;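 active = replicate mean of 50% or more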;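 note: 0% = median vehicle wells and 100% = positive control; 100 nL library stock added to about 50 µL; numbers are from one replicate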
Shh pathway inh – blocks Sonic Hedgehog signaling. Shh-LIGHT2 Gli-luciferase reporter, 30 h. actives 2.1% (n = 22,000). inhibition, % (test concentration not listed);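 active = replicate mean of 65% or more; inconclusive = mean lower but half the replicates past it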;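 note: pathway switched on by Shh-conditioned medium diluted 1 in 25 in low serum; 100 nL library stock added to about 40 µL; 0% = median of neutral wells and 100% = positive control level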
MITF inh – MITF inhibition | TRPM1 promoter luciferase, luminescence, 24 h | inhibition, % (test concentration not listed) | actives 0.28% (n = 37,000) | AID 2240;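 active = most replicates at 85% or more, or half of them and the mean; inconclusive = half reach 85% but not the mean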;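 note: human melanocyte line stably carrying TRPM1 promoter luciferase reporter; 0% = vehicle wells and 100% = a positive control; the first replicate is given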
YB-1 expression – YB-1 expression inhibition | U2OS, qRT-PCR YB-1 vs CDIP delta delta Cp, 16 h; stronger effect = higher value; zero = DMSO, each unit about twofold | delta delta Cp (YB-1 minus CDIP) (test concentration not listed) | actives 0.37% (n = 30,000) | AID 434959;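 active = delta delta Cp rounded down to an integer at or above 3, about 3 SD of DMSO wells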;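 note: higher means less YB-1 transcript or more CDIP transcript relative to DMSO; stock transfer was 100 nL into about 100 µL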
* = called active by the depositor.

`CCCc1ccc(O)c(N)c1` gave PD-1 reverse act -6.6, Shh pathway inh 26, MITF inh 15 and YB-1 expression -0.66.
For Cn1c(SCC(=O)c2ccc(F)cc2)nnc1-c1ccco1 the results were PD-1 reverse act 1.2 and MITF inh -86.
`C[C@@H]1CCCCO[C@H](CN(C)C(=O)CCC(F)(F)F)[C@@H](C)CN([C@H](C)CO)C(=O)c2cc(NC(=O)Cc3ccccc3)ccc2O1` gave PD-1 reverse act -1.4, Shh pathway inh -10, MITF inh 3 and YB-1 expression 0.38.
Screening CN(C)/C=N/n1cnc2sc3c(c2c1=O)CCCC3 returned PD-1 reverse act 0.0, MITF inh 0 and YB-1 expression -0.76.
`C[C@H]1CN([C@@H](C)CO)C(=O)c2cccc(NC(=O)NC3CCCCC3)c2O[C@@H]1CN(C)Cc1ccccc1` gave Shh pathway inh -5, MITF inh 13 and YB-1 expression -0.15.
For Cc1ccc(-c2nn(CCC(=O)Nc3cccc(Cl)c3)c(=O)c3ccccc23)cc1 the results were PD-1 reverse act 2.5 and MITF inh -4.
Screening C[C@H](CO)N1C[C@H](C)[C@H](CN(C)S(=O)(=O)c2cn(C)cn2)Oc2ccc(NC(=O)Nc3ccc(F)cc3)cc2C1=O returned PD-1 reverse act 0.0, Shh pathway inh -10, MITF inh -3 and YB-1 expression -0.12.
C[C@H]1CN([C@@H](C)CO)C(=O)c2cc(NC(=O)Cc3ccccc3)ccc2O[C@H]1CN(C)C(=O)Nc1ccccc1 was read as PD-1 reverse act 0.6, MITF inh 10 and YB-1 expression 0.13.
O=[N+]([O-])c1ccccc1/C=C/CN1CCC(O)CC1 was read as PD-1 reverse act 0.2 and MITF inh 17.
Screening CC1(C)CC(=O)C2=C(C1)N(c1ccccc1)C(=O)C2(NC(=O)c1cccnc1)C(F)(F)F (stereo not drawn) returned PD-1 reverse act 0.6 and MITF inh -6.
C[C@@H]1CN([C@H](C)CO)C(=O)Cc2cc(NC(=O)C3CC3)ccc2O[C@@H]1CN(C)Cc1ccc(Oc2ccccc2)cc1 was read as PD-1 reverse act -2.6, Shh pathway inh 46, MITF inh 7 and YB-1 expression 0.44.
C[C@H]1CN([C@@H](C)CO)C(=O)Cc2cc(N(C)C)ccc2O[C@H]1CN(C)C(=O)Nc1ccccc1 was read as PD-1 reverse act 3.7, Shh pathway inh -25, MITF inh -26 and YB-1 expression -0.29.
O=C(CSc1nc2ccccc2c(=O)n1Cc1ccco1)c1ccccc1 was read as PD-1 reverse act -0.4, Shh pathway inh 10, MITF inh 4 and YB-1 expression -0.73.
Screening C[C@H]1CN([C@@H](C)CO)C(=O)c2cc(NS(=O)(=O)c3cccs3)ccc2O[C@H]1CN(C)CC1CC1 returned PD-1 reverse act 1.4, Shh pathway inh -11, MITF inh 2 and YB-1 expression 0.16.
Screening Nc1nnc(SCC(=O)Nc2ccc(F)c(F)c2F)s1 returned PD-1 reverse act 0.3 and MITF inh -8.
O=C(CSc1nnc(-c2cccnc2)o1)c1ccc2c(c1)OCCO2 was read as PD-1 reverse act 3.0 and MITF inh -26.
For O=C(COc1ccc(S(=O)(=O)N2CCCCC2)cc1)Nc1ccc2c(c1)OCCO2 the results were PD-1 reverse act -0.8 and MITF inh 6.
For CCOc1ccccc1NC(=O)C(C)Oc1ccc(OC)cc1 (stereo not drawn) the results were PD-1 reverse act -3.4 and MITF inh 24.
For C[C@@H]1CCCCO[C@@H](CN(C)S(=O)(=O)c2cccs2)[C@@H](C)CN([C@H](C)CO)C(=O)c2cc(N(C)C)ccc2O1 the results were PD-1 reverse act 0.0, MITF inh 6 and YB-1 expression 0.36.
`Cn1c(SCC(=O)c2ccc(Cl)cc2)nnc1-c1ccncc1` gave PD-1 reverse act 1.8 and MITF inh -30.
COc1ccc(NC(=O)CSc2nnc(-c3ccc(Cl)cc3)n2C)cc1 was read as PD-1 reverse act 3.2 and MITF inh 9.
Screening C[C@H]1CN([C@@H](C)CO)C(=O)c2cc(NC(=O)CCC(F)(F)F)ccc2O[C@@H]1CN(C)Cc1ccncc1 returned PD-1 reverse act -0.1, MITF inh 1 and YB-1 expression -0.12.
Screening Cc1ccccc1-n1c(SCC(N)=O)nc2ccccc2c1=O returned PD-1 reverse act 0.5 and MITF inh -2.
COc1cc(CC2COC(=O)C2(O)Cc2ccc(O)c(OC)c2)ccc1O (stereo not drawn) was read as PD-1 reverse act -1.1, Shh pathway inh -28, MITF inh 91* and YB-1 expression -2.8.
C[C@@H]1CN([C@H](C)CO)C(=O)c2cc(NC(=O)Nc3ccc(F)cc3)ccc2O[C@H]1CN(C)Cc1ccc(C(=O)O)cc1 was read as PD-1 reverse act 0.7, MITF inh -7 and YB-1 expression -0.19.
`C[C@@H]1CN([C@H](C)CO)C(=O)c2cc(NS(=O)(=O)c3cn(C)cn3)ccc2O[C@H]1CN(C)CC1CCCCC1` gave Shh pathway inh -13, MITF inh -3 and YB-1 expression -0.18.
`CN(CC(=O)Nc1cccnc1)S(=O)(=O)c1ccc(Br)cc1` gave PD-1 reverse act 0.3 and MITF inh -10.
`COc1ccc(S(=O)(=O)Nc2ccc3c(c2)C(=O)N([C@H](C)CO)C[C@@H](C)[C@H](CN(C)S(=O)(=O)c2ccc(C)cc2)O3)cc1` gave PD-1 reverse act 0.3, Shh pathway inh 1, MITF inh 8 and YB-1 expression -0.2.
C[C@H]1CN([C@@H](C)CO)C(=O)c2cccc(NC(=O)C3CC3)c2O[C@H]1CN(C)C(=O)Nc1ccc(C(F)(F)F)cc1 was read as PD-1 reverse act 2.6, Shh pathway inh -70, MITF inh -2 and YB-1 expression -0.52.
Screening COc1ccc(S(=O)(=O)N2CCOCC2)cc1C(=O)NCCN1CCOCC1 returned PD-1 reverse act 1.8 and MITF inh -10.
For Cc1ccc(-c2csc3nnc(SCC(=O)Nc4ccc(Cl)cc4)n23)cc1 the results were PD-1 reverse act -0.5 and MITF inh 37.
Screening C[C@H]1CN([C@@H](C)CO)C(=O)Cc2cc(NS(=O)(=O)c3cn(C)cn3)ccc2O[C@@H]1CN(C)C(=O)Nc1ccccc1 returned PD-1 reverse act 1.6, Shh pathway inh 14, MITF inh -4 and YB-1 expression 0.041.
`CN1[C@@H]2CC[C@H]1CC(OC(=O)[C@H](CO)c1ccccc1)C2` (stereo partly drawn) gave Shh pathway inh -44, MITF inh -5 and YB-1 expression 0.08.
`C[C@H]1CN([C@@H](C)CO)C(=O)c2cccc(NC(=O)c3ccncc3)c2O[C@H]1CN(C)Cc1ccc2c(c1)OCO2` gave PD-1 reverse act -1.7, Shh pathway inh -10, MITF inh -8 and YB-1 expression -0.2.
Cc1ccc(S(=O)(=O)N(C)C[C@@H]2Oc3ccc(NC(=O)Cc4ccccc4)cc3CC(=O)N([C@H](C)CO)C[C@@H]2C)cc1 was read as PD-1 reverse act -0.2, Shh pathway inh 14, MITF inh 22 and YB-1 expression 0.13.
For Cc1ccc(-c2noc(CSc3nnc(C)n3-c3cccc(C)c3)n2)cc1 the results were PD-1 reverse act 0.6 and MITF inh -2.
`C[C@@H]1CN([C@@H](C)CO)C(=O)c2cccc(NC(=O)c3ccncc3)c2O[C@@H]1CN(C)Cc1ccc(Oc2ccccc2)cc1` gave PD-1 reverse act 0.0, Shh pathway inh -4, MITF inh -12 and YB-1 expression 0.15.
For C[C@@H]1CCCCO[C@H](CN(C)Cc2ccccc2)[C@@H](C)CN([C@H](C)CO)C(=O)c2cc(NC(=O)C3CCCCC3)ccc2O1 the results were PD-1 reverse act -0.9, Shh pathway inh -30, MITF inh -3 and YB-1 expression -0.092.
Screening COc1ccc(NC(=O)N(C)C[C@@H]2Oc3c(NS(=O)(=O)c4ccc(F)cc4)cccc3C(=O)N([C@H](C)CO)C[C@@H]2C)cc1 returned PD-1 reverse act -2.2, Shh pathway inh -13, MITF inh 3 and YB-1 expression -0.38.
Screening CC(C)c1c(O)ccc2c1CCC1C(C)(C)CCC[C@]21C (stereo partly drawn) returned Shh pathway inh inconclusive, MITF inh 106* and YB-1 expression -0.2.
Cc1ccc(S(=O)(=O)Nc2ccc3c(c2)CC(=O)N([C@H](C)CO)C[C@@H](C)[C@@H](CN(C)CC2CCCCC2)O3)cc1 was read as PD-1 reverse act -5.0, Shh pathway inh -2, MITF inh 1 and YB-1 expression 0.18.
`C[C@H](CO)N1C[C@H](C)[C@H](CN(C)CC2CCCCC2)Oc2ccc(NS(=O)(=O)c3cn(C)cn3)cc2CC1=O` gave PD-1 reverse act 3.1, Shh pathway inh -30, MITF inh -15 and YB-1 expression -0.14.
`Cc1ccc(S(=O)(=O)Nc2cccc3c2O[C@@H](CN(C)S(=O)(=O)c2ccc(Cl)cc2)[C@@H](C)CN([C@H](C)CO)C3=O)cc1` gave PD-1 reverse act 0.9, Shh pathway inh -6, MITF inh 13 and YB-1 expression -0.36.
C[C@H](CO)N1C[C@H](C)[C@@H](CN(C)S(=O)(=O)c2ccc(F)cc2)Oc2ccc(NC(=O)CCC(F)(F)F)cc2C1=O was read as PD-1 reverse act 0.3, MITF inh -12 and YB-1 expression 0.18.
For COc1ccc(NC(=O)C(C)NS(=O)(=O)c2ccccc2)cc1Cl (stereo not drawn) the results were PD-1 reverse act -0.4 and MITF inh 5.
Screening Cc1noc(C)c1S(=O)(=O)Nc1ccc2c(c1)C(=O)N([C@@H](C)CO)C[C@@H](C)[C@@H](CN(C)Cc1ccc(-c3ccccc3)cc1)O2 returned PD-1 reverse act -1.1, Shh pathway inh -21, MITF inh 15 and YB-1 expression -0.34.
Screening CNC[C@@H]1Oc2ccc(NS(=O)(=O)c3cccs3)cc2CC(=O)N([C@H](C)CO)C[C@H]1C returned PD-1 reverse act 0.5, Shh pathway inh -26, MITF inh -1 and YB-1 expression 0.027.
CCc1cccc(OCC(=O)Nc2cc([N+](=O)[O-])ccc2O)c1 was read as PD-1 reverse act 1.4 and MITF inh 46.
`CCn1c(SCC(=O)Nc2ccccc2C)nc2ccc(I)cc2c1=O` gave PD-1 reverse act -2.1 and MITF inh -7.
Screening C[C@@H]1CN([C@@H](C)CO)C(=O)c2cccc(NC(=O)Nc3ccc(F)cc3)c2O[C@H]1CN(C)Cc1ccncc1 returned Shh pathway inh -31, MITF inh 0 and YB-1 expression -0.15.
Cc1noc(C)c1NC(=O)Nc1cccc2c1O[C@@H](CN(C)C(=O)Nc1ccc3c(c1)OCO3)[C@@H](C)CN([C@H](C)CO)C2=O was read as PD-1 reverse act 1.2, Shh pathway inh 0, MITF inh 3 and YB-1 expression 1.4.
For C[C@H](CO)N1C[C@H](C)[C@@H](CN(C)S(C)(=O)=O)Oc2c(NC(=O)Nc3cccc4ccccc34)cccc2C1=O the results were PD-1 reverse act 0.6, Shh pathway inh 11, MITF inh -5 and YB-1 expression -0.01.
`C[C@H](CO)N1C[C@H](C)[C@@H](CN(C)Cc2ccc(Oc3ccccc3)cc2)Oc2c(NC(=O)Nc3ccc(F)cc3)cccc2C1=O` gave PD-1 reverse act -1.4, Shh pathway inh inconclusive, MITF inh 18 and YB-1 expression 0.38.
N#Cc1c(-c2cccs2)c2c([nH]c1=S)CCCC2 was read as PD-1 reverse act 0.8, MITF inh 3 and YB-1 expression 0.12.
Cc1cccc(NC(=O)CC(C(=O)O)N2CCOCC2)c1 (stereo not drawn) was read as PD-1 reverse act 1.6 and MITF inh -1.
For C[C@@H]1CN([C@@H](C)CO)C(=O)c2cccc(NS(=O)(=O)c3cn(C)cn3)c2O[C@@H]1CN(C)C(=O)Nc1ccc2c(c1)OCO2 the results were PD-1 reverse act 3.0, Shh pathway inh -9, MITF inh 5 and YB-1 expression 0.63.
C[C@H](CO)N1C[C@H](C)[C@@H](CN(C)Cc2ccc(Cl)c(Cl)c2)Oc2ccc(NS(=O)(=O)c3ccc(F)cc3)cc2C1=O was read as PD-1 reverse act -3.2, Shh pathway inh 27, MITF inh 1 and YB-1 expression -0.16.
C[C@@H]1CN([C@@H](C)CO)C(=O)Cc2cc(NC(=O)Nc3cccc4ccccc34)ccc2O[C@@H]1CN(C)S(=O)(=O)c1ccc(Cl)cc1 was read as PD-1 reverse act -2.7, Shh pathway inh -23, MITF inh 0 and YB-1 expression -0.22.
`C[C@@H]1CN([C@H](C)CO)C(=O)Cc2cc(NS(=O)(=O)c3ccc(F)cc3)ccc2O[C@H]1CN(C)Cc1ccc(Oc2ccccc2)cc1` gave PD-1 reverse act -8.8, Shh pathway inh 50, MITF inh 18 and YB-1 expression -0.29.

Arranged by length of the SMILES (smallest number first): some entries from above.
`CN(CC(=O)Nc1cccnc1)S(=O)(=O)c1ccc(Br)cc1` gave PD-1 reverse act 0.3 and MITF inh -10.
COc1cc(CC2COC(=O)C2(O)Cc2ccc(O)c(OC)c2)ccc1O (stereo not drawn) was read as PD-1 reverse act -1.1, Shh pathway inh -28, MITF inh 91* and YB-1 expression -2.8.
Screening CNC[C@@H]1Oc2ccc(NS(=O)(=O)c3cccs3)cc2CC(=O)N([C@H](C)CO)C[C@H]1C returned PD-1 reverse act 0.5, Shh pathway inh -26, MITF inh -1 and YB-1 expression 0.027.
C[C@H]1CN([C@@H](C)CO)C(=O)c2cccc(NC(=O)C3CC3)c2O[C@H]1CN(C)C(=O)Nc1ccc(C(F)(F)F)cc1 was read as PD-1 reverse act 2.6, Shh pathway inh -70, MITF inh -2 and YB-1 expression -0.52.

Compound activity deposited in PubChem by Broad Institute.

The list is partial (hit frequency here may not be typical).
